From PubChem BioAssay
Mtb H37Rv: M. tuberculosis H37Rv growth inhibitors, H37Rv strain (AID 1626); M. tuberculosis H37Rv growth inhibition; higher % means a stronger effect; inhibition, % at 10 µM, or IC50 in µM where a hit was titrated; 0.95% of 220,000 active;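 active = confirmed in a dose series; inconclusive = inhibition above 80% but not taken into the dose series; inactive = below 80% or under 30% at every dose of the series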;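 note: bacteria incubated seven days before Alamar blue readout; 0% = bacteria only wells and 100% = bacteria with antibiotic wells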
Arbovirus anti: antivirals against arbovirus infection. arbovirus infection cell-based antiviral screen. inhibition, % at 10 µM. 0.37% of 200,000 active. AID 1251;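 active = inhibition from about 30%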;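 note: bluetongue infection of BSR cells; cell survival read as ATP light after 72 h; 0% = infected wells without compound and 100% = uninfected wells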
YopH inh: inhibitors of Yersinia enterocolitica YopH tyrosine phosphatase. fluorescence Ex485/Em525. inhibition, %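 (about 10 µM by stock and volumes)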. AID 898. 0.16% of 140,000 active;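 active = inhibition of 50% or more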;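 note: controls were vehicle for no effect and minimum signal wells for full effect; inactives centre near -20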
RecA intein inh: inhibitors of M. tuberculosis RecA intein splicing. P9WHJ3. cell-free RecA intein splicing, fluorescence. inhibition, %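 (about 9 µM by stock and volumes)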. 0.75% of 290,000 active. AID 2221; in the data active = inhibition above about 30%; inconclusive = no clear call, values can overlap the other calls;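 note: 0% = vehicle wells and 100% = reference inhibitor control wells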
Target sequence (P9WHJ3 whole entry, looked up): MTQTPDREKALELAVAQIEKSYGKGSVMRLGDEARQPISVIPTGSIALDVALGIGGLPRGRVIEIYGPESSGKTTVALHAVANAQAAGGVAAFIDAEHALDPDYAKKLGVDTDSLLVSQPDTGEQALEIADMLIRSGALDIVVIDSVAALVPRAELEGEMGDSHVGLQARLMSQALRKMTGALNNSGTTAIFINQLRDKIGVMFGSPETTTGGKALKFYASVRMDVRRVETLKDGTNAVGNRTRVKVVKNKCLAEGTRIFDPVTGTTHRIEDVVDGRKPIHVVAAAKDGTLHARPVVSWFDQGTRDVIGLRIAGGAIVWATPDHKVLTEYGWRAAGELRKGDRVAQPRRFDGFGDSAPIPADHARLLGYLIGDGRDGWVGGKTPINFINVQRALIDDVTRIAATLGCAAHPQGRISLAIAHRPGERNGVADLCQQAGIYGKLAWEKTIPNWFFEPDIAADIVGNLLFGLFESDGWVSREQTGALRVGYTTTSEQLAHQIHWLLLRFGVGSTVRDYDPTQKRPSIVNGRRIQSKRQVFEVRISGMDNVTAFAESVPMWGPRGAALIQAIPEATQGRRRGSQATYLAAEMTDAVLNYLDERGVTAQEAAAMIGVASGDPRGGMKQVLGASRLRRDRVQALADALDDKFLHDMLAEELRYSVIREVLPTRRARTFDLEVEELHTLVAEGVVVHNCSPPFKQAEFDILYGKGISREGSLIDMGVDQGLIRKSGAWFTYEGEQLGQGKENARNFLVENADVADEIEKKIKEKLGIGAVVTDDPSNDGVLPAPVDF
Mtb betalactam: beta-lactam sensitization of Mtb H37Rv | AID 434955 | inhibition, % at 25 µM | M. tuberculosis H37Rv growth with meropenem, percent inhibition; hits of this screen are not shown here | 0.27% of 330,000 active;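 active = about 74% or more and at least 40 points above the plate without the antibiotic, then above 30% in a dose series; inconclusive = first-round hits that could not be retested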;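 note: growth measured after seven days incubation then overnight dye step; 0% = bacteria only wells and 100% = bacteria with antibiotic; twin plates without the antibiotic show which effects depend on it; some results filed as inactive read as strong as hits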
Arbovirus anti repeat: further read-out of Arbovirus anti, marked with its call; inhibition, %; measured here: 10K subset replicate screen; many hits read low in the repeat;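 first of two repeat runs on a subset; 0% = infected and 100% = uninfected wells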
* = called active by the depositor; ? = inconclusive; . = not tested or not shown. Not all compounds are listed; rates above refer to the full screens.

Start of the listing, in advance (two entries):
SMILES	Mtb H37Rv	Arbovirus anti	YopH inh	RecA intein inh	Mtb betalactam	others
Cc1nc2nc(SCC(=O)NCCCN3CCOCC3)nn2c(C)c1Cc1ccccc1	-2%	4	.	1.7	-4
Cn1c(=O)c2c(nc(N3CCCC3)n2C)n(C)c1=O	.	.	.	-2.4	1

All compounds of this part, previewed entries included:
SMILES	Mtb H37Rv	Arbovirus anti	YopH inh	RecA intein inh	Mtb betalactam	others
Cc1nc2nc(SCC(=O)NCCCN3CCOCC3)nn2c(C)c1Cc1ccccc1	-2%	4	.	1.7	-4
Cn1c(=O)c2c(nc(N3CCCC3)n2C)n(C)c1=O	.	.	.	-2.4	1
COC(=O)c1ccc2c(=O)[nH]c(COC(=O)CCC(=O)c3ccc(Cl)cc3)nc2c1	.	.	.	-3.3	-2
Cc1ccc(/C=N/Nc2ccnc3cc(Cl)ccc23)c(C)c1	?	-34	-19	-1.1	100
O=C(Nc1nc(-c2ccccc2)c(C(=O)c2ccccc2)s1)c1ccc(S(=O)(=O)N2CCCCC2)cc1	-4%	20	-5	5.0	5
CCN(CC(=O)Nc1cccc(S(=O)(=O)N2CCCC2)c1)CC(=O)Nc1ccccc1OC	-2%	5	.	-0.2	-6
Cn1c(Nn2cnnc2)nc2ccccc21	-3%	8	-47	-1.7	-6
CN(C(=O)COC(=O)c1ccc([N+](=O)[O-])cc1)c1ccccc1	22%	7	.	.	66
CC1CC(C)CN(C(=O)CCNS(=O)(=O)c2cccs2)C1 (centres undefined)	-1%	-3	-16	0.7	1
COc1cc(CNC2CCCc3ccccc32)cc(OC)c1OC (centres undefined)	11%	1	22	-1.2	1
COc1ccc(C(=O)Nc2ccc(Cl)cc2C(=O)NCc2ccco2)cc1OC	-10%	-2	-50	3.6	-1	Arbovirus anti repeat=-2
CCCc1cc(-c2ccc3c(c2)COc2c4ccccc4nn2-3)on1	.	.	.	-1.1	74
CC(C)C(NC(=O)/C=C/c1cccc([N+](=O)[O-])c1)C(C)C	-6%	-10	-26	0.2	8
CCCCNC(=O)C1CCC(CNS(=O)(=O)c2ccc(C)cc2)CC1 (centres undefined)	4%	8	.	-1.9	3
O=S(=O)(Nc1ccc(-c2cn3c(n2)SCC3)cc1)c1cccs1	.	8	.	-2.0	0
O=C(OCC(=O)N1CCCC1=O)c1ncc(Cl)c(Cl)c1Cl	.	.	.	0.0	-12
O=S(=O)(N/N=C\c1cccn1-c1ccccc1)c1ccc2ccccc2c1	9%	7	-15	4.0	-4
COC(=O)c1ccc2c(=O)n(CCN3CCOCC3)c(SCC(=O)Nc3ccc(OC)cc3OC)nc2c1	.	.	.	0.8	-1
COc1ccc(OC)c(NC2=NCCCS2)c1	-6%	-1	.	-1.0	-9
COc1ccc(C(=O)NCc2cccnc2)cc1	-10%	-3	2	2.2	11

Brought forward from above: two entries, followed by the next part.
SMILES	Mtb H37Rv	Arbovirus anti	YopH inh	RecA intein inh	Mtb betalactam	others
COc1ccc(OC)c(NC2=NCCCS2)c1	-6%	-1	.	-1.0	-9
COc1ccc(C(=O)NCc2cccnc2)cc1	-10%	-3	2	2.2	11
NC(=O)C1CCN(C(=O)COc2cccc3cccnc23)CC1	-11%	-1	.	-0.3	-2
Cc1ccc(OCC(=O)Nc2ccc(N3CCN(S(C)(=O)=O)CC3)cc2)cc1C	0%	4	.	-0.9	46
Cc1csc2nc(SCC(=O)N3CCN(c4ccccc4)CC3)[nH]c(=O)c12	.	.	.	-2.9	8
O=C(Cc1ccccc1)NNC(=S)NC(=O)c1cccs1	?	.	.	1.4	40
O=C(/C=C/c1ccccc1)NNC(=O)c1cccnc1	-14%	12	-19	1.7	7
CN(C)c1cccc(C(=O)N/C=C/n2cnc3cc(C(F)(F)F)ccc32)c1	6%	-4	.	-2.7	0
COc1ncnc2c1N=C1CC(C)(C)CC(N)=C1S2	.	-2	-26	-2.8	-6
CCOC(=O)C[C@H]1c2ccccc2S(=O)(=O)N1Cc1ccc(Cl)cc1	5%	.	.	-2.7	-1
COCCCNC(=O)CCCOc1ccccc1	1%	1	-16	4.7	2
Cc1cc(C)nc(NC(=O)c2ccc(Cl)cc2[N+](=O)[O-])c1	1%	-13	-26	3.5	0
O=C(O)/C=C/C(=O)Nc1ccc(SC(F)(F)C(F)(F)C(F)(F)F)cc1	0%	2	.	67*	-6
CCCn1c(=O)c(C(=O)NCCc2ccccc2)c(O)c2ccccc21	.	.	.	0.1	6
COc1ccc(N2CCN(C(=O)c3ccccc3NS(=O)(=O)c3ccccc3)CC2)cc1	.	.	.	1.4	-6
Cn1cc(Br)c(-c2cccc(NC(=O)CC(C)(C)CC(=O)O)c2)n1	-15%	.	.	.	7
COc1ccc2c(c1)CC1(CN2C)C(=O)NC(=O)N(c2ccc(F)cc2)C1=O (centres undefined)	-5%	5	-41	0.4	5
CCOC(=O)N1CCN(c2cc3nccnc3cc2F)CC1	-10%	-5	-10	-0.5	-7
O=C(O)CC1S/C(=N/N=C2CCCCC2)N(c2ccccc2)C1=O (centres undefined)	-3%	-1	-30	-0.2	-2
Cc1ccc(C2=NS(=O)(=O)N(C)C(C(=O)N(C)C3CCCCC3)=C2)cc1	.	.	.	1.9	5
CC(C)OC(=O)CSc1nc2c(c(C3CC=CCC3)c1C#N)CCC2 (centres undefined)	29%	-11	-19	-0.8	6
CC1(C(=O)N2CCOCC2)CCCCC1	.	.	.	-1.2	71

Structures listed so far that have an NH in an aromatic ring, in the order listed:
SMILES	Mtb H37Rv	Arbovirus anti	YopH inh	RecA intein inh	Mtb betalactam	others
COC(=O)c1ccc2c(=O)[nH]c(COC(=O)CCC(=O)c3ccc(Cl)cc3)nc2c1	.	.	.	-3.3	-2
Cc1csc2nc(SCC(=O)N3CCN(c4ccccc4)CC3)[nH]c(=O)c12	.	.	.	-2.9	8

Further entries follow.
SMILES	Mtb H37Rv	Arbovirus anti	YopH inh	RecA intein inh	Mtb betalactam	others
Cc1ccc(C(=O)CC2(O)C(=O)N(Cc3ccccc3)c3ccccc32)o1 (centres undefined)	2%	-4	-8	1.8	2
COc1ccc(S(=O)(=O)N(C)CC(=O)NCCCn2ccnc2)cc1Cl	.	.	.	-1.7	-2
COc1cccc(/C=N/NC(=O)C(=O)N2CCCC2)c1	-9%	.	-27	.	-5
COc1ccc(Cl)cc1S(=O)(=O)N(C)CC(=O)NCCCn1ccnc1	.	.	.	0.7	0
COc1ccc(-c2cc(C(=O)NCCN3CCOCC3)c3cc(C(C)C)ccc3n2)cc1	.	.	.	0.5	80
CCOC(=O)Cn1c(C)[n+](CC(=O)c2ccccc2)c2ccccc21	-8%	.	.	-0.9	-6
CC(C)CN(c1ccccc1)S(=O)(=O)c1nnc(NC(=O)C(C)C)s1	.	.	.	0.5	6
Cc1cccc(OCc2nnc(SCC(=O)Nc3nccs3)o2)c1	3%	.	.	3.4	19
CCC(=O)Nc1ccc(C(=O)n2nc(C)cc2C)cc1	4%	9	-7	1.6	-8	Arbovirus anti repeat=0
CCOC(=O)c1c(NC(=O)C2C3C=CC(C3)C2(C)C(=O)O)sc2c1CCCC2 (centres undefined)	-3%	15	3	2.9	-6
Cc1nc2scc(C)n2c(=O)c1S(=O)(=O)N1CCN(c2ccccn2)CC1	.	.	.	-1.2	-7
CCc1ccc(S(=O)(=O)N2CCN(c3ncccn3)CC2)cc1	.	.	.	1.0	5
COc1cc(C(=O)OC(C)C(=O)NCC2CCCCC2)cc(NC(=O)c2ccco2)c1OC (centres undefined)	18%	-14	15	6.6	9
Cc1cc(C(=O)NCC(=O)OCC(=O)N(C)C2CCCCC2)ccc1[N+](=O)[O-]	-4%	1	-2	0.0	-2
N/C(CCN1CCCCC1)=N/O	-4%	2	-31	-2.3	-17
Cc1nc(-c2ccc(S(=O)(=O)NCc3ccccn3)s2)cs1	1%	.	.	4.4	-5
O=S(=O)(c1ccc(OCc2nc3ccccc3s2)c(Cl)c1)N1CCOCC1	-10%	4	-24	-2.4	-4	Arbovirus anti repeat=2
COc1ccc(/C=C/C(=O)c2ccc3c4c(cccc24)CC3)cc1OC	44%	9	-26	20	58
COc1nccnc1NS(=O)(=O)c1ccc(NC(=S)NC(=O)c2ccccc2)cc1	4%	-10	-26	-1.0	2
COc1ccc(-c2c(C)nc(N)nc2-c2ccc(OCc3ccc(C)cc3)cc2O)cc1OC	4%	-3	-21	-4.4	-2
CC(C)Oc1ccc(CCc2nnc(SC(C)C(=O)O)n2-c2ccccc2)cc1 (centres undefined)	3%	6	.	0.0	2
O=C1NC(=O)/C(=C\c2ccccc2OCc2ccc([N+](=O)[O-])cc2)N1	13%	-11	-32	5.7	-1
Cc1ccc(S(=O)(=O)NCC(=O)N(CC(=O)NCc2ccco2)Cc2ccc3c(c2)OCO3)cc1	4%	-4	-23	6.3	-13
CCOC(=O)c1c(NC(=O)C(F)(OC)C(F)(F)F)sc(C(=O)N2CCCCC2)c1C (centres undefined)	.	-5	-11	4.6	38
CCCCn1nnnc1SCC(=O)Nc1cccc(C)c1	.	.	.	-1.5	9
COc1ccc(C2C(=O)N(C3CCCCC3)CC(=O)N2Cc2ccc3c(c2)OCO3)cc1 (centres undefined)	.	3	3	0.3	-6
O=C(NCc1cccnc1)c1ccc(-c2ccc(Cl)cc2)o1	-1%	-19	.	1.5	-2
O=C(CN1CCN(c2ccc(O)cc2)CC1)Nc1cc(S(=O)(=O)N2CCCC2)ccc1Cl	-9%	-18	.	-6.4	1
CC(C)CCn1cnc2c(cnn2-c2ccc(Cl)cc2)c1=O	-6%	1	-32	1.2	-4
Cc1ccccc1C(=O)NCCN1CCOCC1	-1%	-3	.	3.7	2
C/C(=C/C(=O)N1CCN(C)CC1)C(=O)O	6%	13	1	1.4	0
Cc1ccc(-c2csc(NC(=O)CSc3nc(C)cc(=O)[nH]3)n2)cc1	2%	-7	-6	5.1	-4
Cc1ccsc1/C=N/NC(=O)c1cccc(S(=O)(=O)Nc2ccccc2Cl)c1	4%	-15	-24	-1.5	4
Cc1ccc2oc(C(=O)NCc3ncc(C)[nH]3)c(C)c2c1	.	.	.	5.1	26
C#CC(C)OC(=O)Nc1cnccc1C(F)(F)F (centres undefined)	-10%	.	.	-3.1	-4
Cn1c(CCNC(=O)c2ccc(Cl)cc2)n[nH]c1=S	-8%	1	-29	-2.2	-27
COc1ccc(-n2c(N)c(Br)c(=O)[nH]c2=O)cc1	-8%	7	-8	-5.9	-3
CN1CCCC(CC2Oc3ccccc3Sc3ccccc32)C1 (centres undefined)	20%	-36	-4	1.3	3
Cn1c(=N)n(CC(=O)c2ccc(Br)cc2)c2ccccc21	.	.	.	0.8	81
CS(=O)(=O)c1ccc(S(=O)CC(=O)OCc2ccccc2)c([N+](=O)[O-])c1 (centres undefined)	49%	-27	.	.	.
O=C(N=C1SC2CS(=O)(=O)CC2N1CCc1ccc(F)cc1)C1CCCCC1 (centres undefined)	.	.	.	16	?
COc1cccc(/C=N/NC(=O)C(C)Cn2cnc3ccccc32)c1 (centres undefined)	-1%	.	.	1.4	1
Cc1ccc(OCC(=O)Nc2ccc3c(c2)C(=O)NC3=O)c(C)c1	.	.	.	0.3	-6
COc1ccc(C(=O)N/N=C/c2ccc(OC)c(COc3ccccc3)c2)cc1	.	.	.	1.6	-15
O=C(c1cccnc1)N1N=C(C2CC2)CC1(O)C(F)(F)F (centres undefined)	-2%	2	.	-1.5	3
CCOC(=O)c1c(O)c2ccccc2oc1=O	-3%	.	.	-1.0	2
COc1ccc2c(c1)C1CC(C)(NC(=O)C1C(=O)c1ccccc1)O2 (centres undefined)	2%	14	44	-0.4	0
Fc1ccc(-c2csc(-c3cccnc3)n2)cc1F	.	.	.	-2.1	5
CC(=O)N1N=C(c2cccnc2)OC1c1ccc(C(C)C)cc1 (centres undefined)	5%	-7	.	4.1	1
O=C(CCNS(=O)(=O)c1c(Cl)cccc1Cl)OCC(=O)c1ccccc1	-2%	4	-20	-1.2	-1
O=C(CCC1N=C2c3ccccc3N=C(SCc3ccc(F)cc3)N2C1=O)NCc1ccco1 (centres undefined)	-1%	18	16	5.9	11
O=C(CN(c1ccc(Cl)c(C(F)(F)F)c1)S(=O)(=O)c1ccccc1)N/N=C/c1cccc2c1OCCO2	.	4	-34	1.2	5
CCCCNC(=O)[C@H]1C[C@H]1[C@@H](O)[C@H](CO)NC(=O)[C@H](Cc1ccccc1)NC(=O)OC(C)(C)C	.	.	.	1.0	-4
CCC(=O)N1CCc2nc(-c3ccccc3)sc2C1	.	.	.	2.2	-7
Cc1onc(-c2ccccc2Cl)c1C(=O)Nc1ccc(Cl)cn1	6%	.	.	2.9	-6
CN(CC(=O)N1CCN(Cc2ccccc2)CC1)S(=O)(=O)c1ccc(F)cc1	.	.	.	-1.6	5
Cc1[nH]n(-c2cccc([N+](=O)[O-])c2)c(=O)c1-c1ccccc1	0%	5	.	-1.2	4
